# Cruzain noTriton – blocks cruzain activity in detergent-free assay; 2.3% of 200,000 active; AID 1476; Potency, µM, without a hit: max response, negative = inhibition, most hits filed as inhibitors; purified cruzain, Z-FR-AMC fluorescence, no detergent; P25779;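 note: plate controls were enzyme without inhibitor for no effect and buffer without enzyme for full effect; nearly all actives have a fitted effect of over 40% in size; top concentration of the series not given in the record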
# Target sequence (P25779 123-467 limits assumed): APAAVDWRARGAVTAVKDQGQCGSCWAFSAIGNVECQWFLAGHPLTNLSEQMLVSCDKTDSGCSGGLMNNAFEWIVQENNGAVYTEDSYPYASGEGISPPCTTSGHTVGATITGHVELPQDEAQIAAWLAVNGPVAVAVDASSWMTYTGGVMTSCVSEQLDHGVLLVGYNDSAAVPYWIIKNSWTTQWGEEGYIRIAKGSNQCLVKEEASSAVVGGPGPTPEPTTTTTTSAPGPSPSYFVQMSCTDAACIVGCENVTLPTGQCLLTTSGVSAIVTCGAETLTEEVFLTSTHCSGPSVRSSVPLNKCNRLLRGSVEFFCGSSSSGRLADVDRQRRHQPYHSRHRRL
#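 Purified cruzain at 1.5 nM, pre-incubated 15 min with compound at room temperature in 100 mM sodium acetate pH 5.5, 5 mM DTT, 0.00005% Triton X-100. Reaction started with 2 uM Z-FR-AMC; AMC fluorescence increase over 60 s gives rate.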
# Cruzain inh Det – inhibitors of Trypanosoma cruzi cruzain with detergent; P25779; purified cruzain, Z-FR-AMC fluorescence, 0.01% Triton; Potency, µM, without a hit: max response, negative = inhibition, actives largely listed as inhibitors; 0.43% of 200,000 active;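 note: plate controls were neutral wells for no effect and buffer without enzyme for full effect; nearly all actives have a fitted effect of over 40% in size; top concentration of the series not given in the record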
#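 15 min RT preincubation of 1.5 nM cruzain with compound, then 2 uM Z-FR-AMC added; kinetic AMC fluorescence, 60 s delta. Triton X-100 0.01%, pH 5.5.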
# MARV entry inh – inhibitors of Marburg virus binding or cell entry; Marburg virus pseudotyped entry inhibition, cell reporter; control for the full effect not named in the record; about a third of the inactives were read at about 46 µM; 1.8% of 300,000 active; Potency, µM (titrated, usually from 37.8 µM), without a hit: at the top dose activity change, negative = inhibition, usual class: inhibitors; active = well fitted inhibition curve with a large enough effect; inconclusive = small, poorly fitted or top-dose-only effect, or effect the other way; inactive = flat fitted curve, though single readings scatter; tested in HEK293 cells; about a fifth of its hits are not listed in these tables; note: % is set by controls: 0 for no effect and ±100 for the full control effect; luciferase read-out
# SARS PLP yeast – SARS-CoV PLP inhibition in yeast; S. cerevisiae expressing SARS-CoV PLpro, growth rescue; control for the full effect not named in the record; Potency, µM (doses to about 32.9 µM), without a hit: at the highest dose activity, positive = growth rescue; 0.19% of 330,000 active; AID 485353; active means well fitted rising curve with a large enough effect; inconclusive means small, poorly fitted or top-dose-only effect; inactive means no such curve, though single readings can be large or run the other way; note: 0% is about no effect; nearly all actives have a fitted effect of over 55% in size; growth read by luminescence after 48 h
# StopGo reporter – lowers the luciferase signal of an FMDV 2A StopGo reporter; human cells with a luciferase reporter of 2A StopGo recoding; control for the full effect not named in the record; 1.2% of 410,000 active; Potency, µM (titrated, usually from 57.9 µM), inactives show at the highest dose signal change, negative = less light; active = well fitted falling curve with a large enough effect; inconclusive = small, poorly fitted or top-dose-only effect; inactive = no such curve, though single readings can be large or run the other way; tested in HEK293T cells; note: % is set by controls: 0 for no effect and ±100 for the full control effect; nearly all actives have a fitted effect of over 45% in size; luciferase light after 4 h
# Lassa entry inh – blocks Lassa virus binding to or entry into cells; Lassa virus pseudotype entry inhibition, cell reporter; control for the full effect not named in the record; 1.2% of 300,000 active; Potency, µM (highest dose often 37.9 µM), for the others: top-dose activity change, negative = inhibition, actives largely listed as inhibitors; active means well fitted inhibition curve with a large enough effect; inconclusive means small, poorly fitted or top-dose-only effect, or effect the other way; inactive means flat fitted curve, though single readings scatter; tested in HEK293 cells; note: % is set by controls: 0 for no effect and ±100 for the full control effect; nearly all actives have a fitted effect of over 50% in size; luciferase read-out
# NS1 inh – blocks influenza NS1 protein function; AID 2326; S. cerevisiae slowed by influenza A NS1, growth recovery by OD600; Potency, µM (highest dose often 46.1 µM), inactives show at the top dose activity, positive = more growth; 0.4% of 270,000 active; active means well fitted rising curve with a large enough effect; inconclusive means small, poorly fitted or top-dose-only effect; inactive means no such curve, though single readings can be large or run the other way; note: nearly all actives have a fitted effect of over 50% in size
#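 In this qHTS, NS1 from influenza A is expressed in budding yeast, where it slows growth. Cells are switched from glucose to 2% galactose medium (pH 6.0, -URA), treated with compound, and growth recovery is read at OD600.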
# RE007 growth inh – less growth of the S. pombe RE007 Vpr strain; S. pombe RE007 Vpr strain, BacTiter-Glo ATP luminescence, 24 h; control for the full effect not named in the record; Potency, µM (top dose mostly 92.2 µM), for the others: at the highest dose activity change, negative = less growth; 0.21% of 360,000 active; AID 651644; active = well fitted falling curve with a large enough effect; inconclusive = small, poorly fitted or top-dose-only effect; inactive = no such curve, though single readings can be large or run the other way;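 note: % is set by controls: 0 for no effect and ±100 for the full control effect; nearly all actives have a fitted effect of over 50% in size; the assay follows cell death caused by Vpr and the record does not say whether a fall means rescue or toxicity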
#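 Fission yeast RE007 carrying one integrated HIV-1 vpr copy, seeded at OD 0.01 in PMG+AL medium with 23 nL pinned compound. Grown 24 h at 30 degrees; viability read by BacTiter-Glo luminescence after 5 min.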
# The depositor's hits bear a star; ? = inconclusive; / = not tested or not shown; & = joins results of further samples; [ ] = dose if it differs, or a comment. Unless noted, calls come from the whole dose curve; as a rule, active = well fitted curve in the direction sought with a large enough effect; inconclusive = small, poorly fitted or top-dose-only effect, or another doubt; inactive = no such curve, though single readings can be large; an effect the other way counts as inactive or inconclusive. Potency is the fitted concentration of half-maximal effect.
SMILES,Cruzain noTriton,Cruzain inh Det,MARV entry inh,SARS PLP yeast,StopGo reporter,Lassa entry inh,NS1 inh,RE007 growth inh
O=C(c1ccc(Cl)cc1)C12CN3CN(CN(C3)C1)C2,-4%,0.4%,?,-11%,-7%,8%,-4%,0%
Cc1ccccc1N1CCN(Cc2ccc(Br)o2)CC1,/,/,3%,5%,-14%,-16%,-14%,8%
Nc1ccccc1C(=O)NCC1(c2ccccc2)CCCC1,/,/,-4%,7%,-14%,0%,22%,-2%
O=C(NNc1cc(N2CCOCC2)nc(N2CCOCC2)n1)c1ccc([N+](=O)[O-])cc1,/,/,16%[46.1 µM],0%,4%,1%[46.1 µM],7%,-7%
COc1ccc(-c2cc(C(=O)Nc3c(C)n(C)n(-c4ccccc4)c3=O)no2)cc1OC,-21%,-3.8%,-1%&-1%[46.1 µM],-1%,-15%&-11%,19%[46.1 µM],/,-22%
O=C(NCCS(=O)CCNC(=O)C(F)(F)F)C(F)(F)F,-1%,3.2%,18%,-1%,-25%,9%,7%,1%
O=C(Cc1ccccc1)NCC(=O)N/N=C/c1cccnc1,/,/,3%,-5%,-6%,0%,1%,-1%
O=C(NCC(c1cccnc1)N1CCN(c2ccccc2F)CC1)C1CCCCC1 (stereo not drawn),6%,1.2%,-10%,?,-20%,-8%,-10%,-2%
CCc1ccc(NC(=O)CC2S/C(=N/N=C3CCCCCC3)NC2=O)cc1 (stereo not drawn),/,/,9%[46.1 µM],-8%,-4%,-26%[46.1 µM],-9%,3%
O=C1CC(c2ccc(S(=O)(=O)NCc3ccncc3)cc2)CN1 (stereo not drawn),-7%,2.3%,/,0%,-28%,/,0%,-5%
COc1ccccc1CNC(=O)C1CCN(S(=O)(=O)c2c(C)noc2/C=C/c2cccs2)CC1,?,-4.1%,3%[46.1 µM],/,-5%,13%[46.1 µM],/,/
COc1cccc(CNCCSc2nnnn2C)c1OCc1ccc(F)cc1,-9%,0.1%,?,/,-18%,-7%[46.1 µM],/,/
Cc1ccc(S(=O)(=O)Nc2ccccc2C(=O)OC(C)C(=O)Nc2ccc3ccccc3c2)cc1[N+](=O)[O-] (stereo not drawn),7.9µM*,-4.2%,?,-1%,0%,-4%,4.5µM*,-13%
O=[N+]([O-])c1ccc(Nc2nc(Cl)nc(NCCO)n2)cc1,/,/,24%[46.1 µM],-2%,9%,0%,/,5%
COc1cc(/C=N/NC(=O)c2cc(C3CC3)[nH]n2)ccc1O,/,/,/,1%,14%,/,6%,5%
Cc1ccc(S(=O)(=O)NC2=NCN(CCc3ccccc3)CN2)cc1,-8%,6.6%,4%,0%,9%,-4%,-10%,-3%
O=C(Cc1ccccc1)N1CCN(S(=O)(=O)c2cccc([N+](=O)[O-])c2)CC1,/,/,0%[46.1 µM],0%,15%,-1%[46.1 µM],1%,3%
CCOC(=O)c1ccc(CN(Cc2ccccc2)S(=O)(=O)c2ccc(C)cc2)cc1,-4%,-0.7%,/,/,3%,11µM*,/,/
O=c1c2ccccc2nc2n1C(CBr)CS2 (stereo not drawn),/,/,?,5%,-1%,11%,0%,26%
Cc1cc(NC(=O)CN2C(=O)NC3(CCCCCC3)C2=O)no1,/,/,-7%[46.1 µM],-1%,-2%,1%[46.1 µM],3%,-1%
CCCCn1c(NC(=O)c2ccc(Br)o2)c(C(=O)OCC)c2nc3ccccc3nc21,?,-16%,-7%[46.1 µM],4%,-14%,-1%&0%,23%,-3%
CCCC(=O)Nc1nnc(CC(=O)N2CCCC2)s1,7%,0.2%,16%,11%,-1%,9%,-7%,8%
Cc1cccc2c(=O)cc(C)n(CC(=O)N3CCCCC3)c12,-10%,-3.3%,-5%,-5%,-19%,-16%,-11%,-18%
O=C(CN1C(=O)C2C3CC(C(Br)C3Br)C2C1=O)OCC(=O)c1cccc([N+](=O)[O-])c1 (stereo not drawn),/,/,0%[46.1 µM],2%,-8%,1%,/,-11%
COc1ccc(NC(=O)CSc2ncc(-c3ccc(Cl)cc3)[nH]2)cc1OC,1%,-6.8%,2%[46.1 µM],/,-18%,-4%[46.1 µM],/,/
# The list goes on.
SMILES,Cruzain noTriton,Cruzain inh Det,MARV entry inh,SARS PLP yeast,StopGo reporter,Lassa entry inh,NS1 inh,RE007 growth inh
CCc1cccc2c(C#N)cn(CC(=O)NCCOC)c12,4%,4.9%,?,0%,-7%,2%,-6%,-15%
Cc1ccc(C(=O)Nc2nc(=O)n(C(=O)c3ccccc3Cl)s2)cc1,-1%,-8.4%,?,0%,42%[activator],18%,-2%,2%
CC(C)CC(=O)N(c1ccc(F)cc1)C1C=CS(=O)(=O)C1 (stereo not drawn),7%,2.6%,1%,6%,/,7%,3%,6%
Cn1nnc2cc(C(=O)NCCC3=CCCCC3)ccc21,5%,-1.1%,?,/,-7%,8.9µM*,-8%,0%
CCC(=O)Nc1ccccc1Sc1ncnc2scc(-c3ccccc3)c12,1%,-4.0%,?,-16%,-13%,?,-34%,4%
CC(=O)NC1=NN(C(C)=O)C(c2cccs2)S1 (stereo not drawn),3%,0.9%,-3%,6%,9%,9%,13%,14%
O=C(Cn1c(=O)nc(-c2ccccc2)c2cc(Cl)ccc21)NCCc1ccc(Cl)cc1,20%,-4.0%,-1%[46.1 µM],/,?,1%[46.1 µM],/,/
CCOc1ccc(CNC(=O)C2CCCN(S(=O)(=O)N3CC(C)CC(C)C3)C2)cc1OC (stereo not drawn),/,/,/,-5%,1%,/,-7%,-11%
O=C(Nc1ccccn1)c1ccccc1,/,/,?,/,-8%,3%[46.1 µM],/,0%
Cc1oc(-c2ccc(Cl)cc2)nc1Cn1c(=O)cc(-c2ccccc2)c2c(C)nn(C)c21,0%,0.4%,/,/,7%,6%[46.1 µM],/,/
Cc1ccc(CSCC(=O)N2CCN(Cc3ccc4c(c3)OCO4)CC2)cc1,17%,0.3%,?,-6%,?,?,-4%,-20%
CN1CCN(c2nc(-c3ccccc3)ncc2S(=O)(=O)c2ccccc2)CC1,/,/,?,-1%,-18%,-18%,-2%,1%
O=C(CN1C(=O)C2CC=CCC2C1=O)OCC(=O)c1ccc(Cl)c([N+](=O)[O-])c1 (stereo not drawn),/,/,-4%[46.1 µM],-4%,-10%,12%[46.1 µM],8%,3%
CCOc1ccc2c(c1)c1nc3ccccc3nc1n2C,/,/,12%[46.1 µM],-2%,-7%,?,-8%,-2%
CCC(C)NC(=O)c1nc2c(nnn2Cc2ccccc2Cl)c(=O)[nH]1 (stereo not drawn),/,/,0%[46.1 µM],1%,12%,2%,1%,-4%
CCCNC(=O)c1c[nH]c2ccc(S(=O)(=O)N(C)c3ccc(OCC)cc3)cc2c1=O,?,-8.7%,?,4%,?,?,-27%,-4%
CSc1ccccc1-c1n[nH]c(=S)o1,/,/,13%[46.1 µM],0%,6%,-7%,/,-7%
CCCN(CCC)CCCNC(=O)CC1Nc2ccccc2NC1=O (stereo not drawn),1%,4.0%,-11%,-1%,-4%,16%,1%,8%
CCOc1ccc(N=Nc2c(=O)[nH]n3c(=O)cc(C)[nH]c23)cc1,11%,-17%,-6%,-13%,-19%,-1%,-1%,?
CC(C)(C)c1nc2c(Br)cc(Br)cc2c(=O)o1,-3%,0.0%,-3%,-9%,3%,?,6%,-3%
CCOC(=O)c1sc2nc(C)nc(Nc3ccc(OC)c(OC)c3)c2c1C,/,/,1%[46.1 µM],-1%,?,-10%,/,0%
CC(C)CC(=O)Nc1nnn(C)n1,-1%,1.4%,?,10%,-3%,-6%,10µM*,5%
COc1cc(OC)c(NS(=O)(=O)c2cc3[nH]c(=O)c(=O)[nH]c3cc2C)cc1Cl,/,/,/,0%,11%,/,2%,5%
COc1ccccc1N/C(N)=N/c1nc(CSc2ccc(C)cc2)cc(=O)[nH]1,?,2.1%,?,2%,?,-25%,11%,8%
CCOC(=O)C1CCC(CN(Cc2ccccc2C)S(=O)(=O)c2ccc([N+](=O)[O-])cc2)CC1 (stereo not drawn),-24%,-2.1%,-38%,-81%,-8%,-18%,-19%,5%
# The listing continues.
SMILES,Cruzain noTriton,Cruzain inh Det,MARV entry inh,SARS PLP yeast,StopGo reporter,Lassa entry inh,NS1 inh,RE007 growth inh
O=c1[nH]c(=S)[nH]c2sc3c(c12)CCCCCC3,/,/,?,9%,-7%,1%,9%,41%
C[C@]12CCC3[C@@H](CCC4=CC(=O)CC[C@@]43C=O)C1CCC2=O (stereo partly drawn),/,/,-1%,0%,-23%,/,1%,3%
COc1cccc(S(=O)(=O)NCc2ccc(C(=O)N3CCN(C)CC3)cc2)c1,/,/,/,-5%,-23%,/,7%,5%
CCC(NC(=O)c1cccc(Cn2nc(C)c([N+](=O)[O-])c2C)c1)c1ccc(C(C)C)cc1 (stereo not drawn),4%,-11%,0%,-4%,?,0%,8%,19%
CCOc1ccc(N(CC)S(=O)(=O)c2ccc3c(c2)oc(=O)n3C)cc1,9%,-5.4%,-22%,-1%,-3%,?,-27%,0%
CCN(CC)C(=O)CSc1nc2c(c(-c3cccnc3)c1C#N)CCCC2,/,/,?,0%,-8%,?,-5%,8%
Cc1cc(C)cc(N2C(=O)C3NN=C(C(=O)OCc4ccccc4)C3C2=O)c1 (stereo not drawn),4%,-1.7%,?,13%,-7%,4%,-1%,5%
CNC1(c2nnnn2-c2c(C)cccc2C)CCOC(C)(C)C1 (stereo not drawn),/,/,/,0%,-24%,/,2%,-8%
CCOc1ccc2[nH]c(=O)c(CN(CCN3CCOCC3)Cc3nnnn3C(C)(C)CC)cc2c1,-7%,-1.6%,-28%,6%,14%,3%,-1%,13%
COc1cccc(/C(C)=N/N=C(\C)c2cccc(OC)c2)c1,/,/,/,-10%,45%[activator],/,-23%,0%
Cc1cccc(OCC(=O)NNC(=O)Nc2cccc(Cl)c2)c1C,?,6.8%,-20%[46.1 µM],0%,11%,10%,13%,-1%
Cc1oc2cc3oc(=O)c(CCC(=O)NCCCn4ccnc4)c(C)c3cc2c1C,/,/,/,-1%,7%,/,10%,-23%
CC(=O)c1cccc(N(C(=O)c2ccco2)C(C(=O)NC2CCCC2)c2ccccc2F)c1 (stereo not drawn),/,/,-15%,0%,20%,-24%,29%,-2%

# Compound activity as filed in PubChem.

# Random draw from the library; overall some 4.5% were active at least once.
